FGF22 binding – shifts melting point of recombinant human FGF22; Q9HCT0; recombinant FGF22 thermal shift, SYPRO orange fluorescence; percent of sucrose octasulfate shift, DMSO zero; calls only at 9.99 µM; actives 1.5% (n = 340,000);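 active means melting point raised past a set limit in the mean and every replicate; inconclusive means no clear call; three in four hits are not shown here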
Target sequence (Q9HCT0 whole entry, looked up): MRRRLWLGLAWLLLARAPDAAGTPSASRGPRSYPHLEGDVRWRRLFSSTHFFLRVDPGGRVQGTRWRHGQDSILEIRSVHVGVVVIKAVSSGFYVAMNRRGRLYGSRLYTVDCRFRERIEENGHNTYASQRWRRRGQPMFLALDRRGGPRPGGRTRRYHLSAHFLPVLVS
ALR H2O2 inh – blocks human ALR sulfhydryl oxidase activity | purified ALR, DTT oxidation, H2O2 HRP-luminol luminescence | actives 3.8% (n = 290,000) | P55789 | inhibition, % (concentration not given with the values);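 active means mean and each replicate at 75% or more; inconclusive means only one of the two met; inactive means neither met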;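 further: stock transfer was 7.5 nL into about 7.5 µL; 0% = neutral wells and 100% = wells with inactivated enzyme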
Target sequence (P55789 whole entry, looked up): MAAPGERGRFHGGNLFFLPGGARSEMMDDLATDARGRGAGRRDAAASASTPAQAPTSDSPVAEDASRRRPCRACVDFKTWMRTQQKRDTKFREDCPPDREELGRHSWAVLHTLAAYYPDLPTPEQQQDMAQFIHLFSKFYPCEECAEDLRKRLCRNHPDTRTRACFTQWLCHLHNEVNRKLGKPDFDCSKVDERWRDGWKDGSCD
Calb FLC – C. albicans growth modulation with fluconazole | actives 0.57% (n = 300,000) | growth inhibition, % (test concentration not listed) | AID 1979 | C. albicans CaCi-2 (fluconazole-resistant clinical isolate) + fluconazole, Alamar Blue growth, 48 h;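 active means most replicates above 75%; inconclusive means exactly half above 75%; inactive means most below 75%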;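 further: all wells also contain fluconazole at 8 µg/ml as a sub-toxic cotreatment; 0% = median of DMSO wells and 100% = median of geldanamycin control wells; wells of about 8 µL received 7.5 nL stock; the first replicate is given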
MLL AF4-AF9 inh – MLL-AF4/AF9 protein interaction inhibition. inhibition, % at 10 µM. AlphaScreen, biotin-AF4 peptide binding to FLAG-AF9. actives 0.47% (n = 350,000). P42568;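 active means every replicate reaching a set inhibition limit, whatever the replicate mean, cut at about 25% in these data; inconclusive means mean inhibition reaches that limit but some replicates miss it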;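 further: 0% = plate neutral control median and 100% = total signal loss; the record names both 10 and 1 µM as test concentration; the first replicate is given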
Target sequence (P42568 whole entry, looked up): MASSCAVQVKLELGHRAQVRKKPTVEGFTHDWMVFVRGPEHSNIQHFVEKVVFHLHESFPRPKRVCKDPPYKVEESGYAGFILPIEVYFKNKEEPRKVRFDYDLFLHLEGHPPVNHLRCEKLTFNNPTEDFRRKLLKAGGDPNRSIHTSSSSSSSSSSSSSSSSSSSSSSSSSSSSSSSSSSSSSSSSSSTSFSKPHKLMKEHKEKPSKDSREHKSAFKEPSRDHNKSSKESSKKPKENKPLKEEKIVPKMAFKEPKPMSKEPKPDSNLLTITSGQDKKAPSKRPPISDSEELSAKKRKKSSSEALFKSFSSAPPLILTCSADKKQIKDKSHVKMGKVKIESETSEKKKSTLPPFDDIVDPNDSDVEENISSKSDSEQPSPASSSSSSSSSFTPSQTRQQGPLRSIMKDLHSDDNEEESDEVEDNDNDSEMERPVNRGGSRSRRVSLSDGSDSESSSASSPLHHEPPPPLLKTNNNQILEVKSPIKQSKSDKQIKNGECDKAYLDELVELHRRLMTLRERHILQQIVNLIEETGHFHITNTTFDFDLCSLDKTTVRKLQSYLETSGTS
Ecoli rRNA inh – selective bacterial rRNA inhibition in E. coli | E. coli WT GFP vs humanized-ribosome RFP mutants, fluorescence, 24 h; hits give low values; DMSO median 0, no signal -100 | GFP signal change (wild-type ribosome), % (no concentration beside the values) | actives 1.6% (n = 350,000);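 active means significant combined selectivity score with lowered wild-type GFP, culture density cut under 30%, mutant RFP and density less affected; inactive means any of these conditions unmet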; further: one replicate is shown; some compounds called inactive have numbers as strong as hits
Beta apoptosis – beta cell apoptosis inhibition | INS-1E cytokine-induced death, ATP luminescence, 48 h; percent of positive-control rescue, neutral wells zero | protection from apoptosis, % (no concentration beside the values) | actives 0.8% (n = 300,000) | AID 435005;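 active means all replicates at 75% or more, or half of them and the mean; inconclusive means half reach 75% but not the mean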;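 further: 0% = cytokine-treated negative control wells and 100% = positive control rescue; higher means more ATP so stronger rescue from cytokine killing; wells of about 40 µL received 100 nL stock; the first replicate is given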
T cruzi repl – T. cruzi replication inhibition. T. cruzi beta-gal in NIH3T3, luminescence, 90 h. inhibition, % (no concentration beside the values). actives 1.4% (n = 300,000). AID 1885;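 active means mean inhibition across valid replicates above about 55%, limit read from the data; inconclusive means mean below that limit but half or more replicates reach it; inactive means mean below it, under half of replicates reach it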;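 further: signal also drops with host cell toxicity which is not excluded here; 0% = plate median of DMSO wells and 100% = zero luminescence signal; higher percent means less beta-gal luminescence so fewer parasites; stock transfer was 50 nL into about 50 µL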
RanGTP-Imp inh – disruptors of Ran-importin-beta complex formation – biochemical, FRET, CFP-Ran, YFP-importin-beta, homogeneous, primary screen; cell-free CFP-Ran/YFP-importin-beta FRET ratio; inhibition, % (concentration not given with the values); actives 1.1% (n = 300,000); AID 2216;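 active means most replicates above 15%; inconclusive means exactly half above 15%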;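 further: 0% = DMSO wells and 100% = Ran loaded with GDP instead of GTP; wells of about 40 µL received 100 nL stock; the first replicate is given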
Ecoli rRNA inh OD600 – second read-out of Ecoli rRNA inh, no call of its own (marks repeat the call); OD600 change, %; measured here: OD600 growth;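 optical density of the mix in the first replicate; 0 = DMSO median and -100 = no signal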
Ecoli rRNA inh RFP – further read-out of Ecoli rRNA inh, marked with its call; RFP signal change, %; measured here: RFP humanized mutant strains;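 first replicate; 0 = DMSO median and -100 = no signal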
* = called active by the depositor; i = inactive; ? = inconclusive; nt = no result given.

Below each compound: FGF22 binding, ALR H2O2 inh, Calb FLC, MLL AF4-AF9 inh, Ecoli rRNA inh, Ecoli rRNA inh OD600, Ecoli rRNA inh RFP, Beta apoptosis, T cruzi repl, RanGTP-Imp inh
- COc1ccccc1CN1CC(C(=O)NCC2CCCO2)CC1=O (stereo not given)
  nt, 0, 3, nt, nt, nt, nt, -2, -21, -3.1
- Cc1ccc(OCCSc2ncnc3nc[nH]c23)cc1
  nt, 1, 1, nt, nt, nt, nt, 3, -12, 2.6
- COc1ccccc1CNS(=O)(=O)c1cc2c3c(c1)CCN3C(=O)CC2
  i, 1, 0, -8.8, 11, 12, 0.0, -5, -8, 3.7
- Cc1ccc(NC(=O)c2ccc3c(c2)OCCO3)cc1C
  i, nt, -4, 1.3, -6, -6, -0.4, 8, 5, 0.9
- COc1ccc(C(C)=O)cc1CC(=O)Nc1cccc(S(=O)(=O)N2CCOCC2)c1
  i, -5, nt, -0.2, 1, 3, 3.7, 4, nt, nt
- C=CCN1C(=O)c2ccc(C(=O)N(C)CC(=O)Nc3ccc(Br)cc3C)cc2C1=O
  i, nt, 0, -6.9, -4, 22, -1.3, -3, -3, 0.0
- CCOc1ccc(S(=O)(=O)Nc2cccc(C(=O)NCC3CCCO3)c2)cc1 (stereo not given)
  i, 1, nt, -6.0, 0, -1, 1.3, 63, -2, -0.3
- O=c1c2ccccc2c(C=NCCO)c(O)n1-c1ccccc1
  nt, -4, 9, nt, nt, nt, nt, -1, 18, 5.0
- COc1ccc(C2(C(=O)NC(C)C)CCCC2)cc1OC
  nt, -23, 0, nt, nt, nt, nt, -6, 6, 0.2
- CN(CC(=O)Nc1cccc(F)c1)CC(=O)Nc1cccc2ccccc12
  i, -8, nt, -14, 5, -30, -3.2, 4, nt, nt
- Cc1ccc(S(=O)(=O)NCCC(=O)N2CC(C)OC(C)C2)cc1 (stereo not given)
  i, -3, 13, -13, 7, 15, -1.6, 0, -8, 2.3
- NC(=S)N/N=C/c1ccccc1OCCSc1ccc(Cl)cc1
  nt, nt, -18, nt, nt, nt, nt, 29, 57*, -0.9
- Cc1ccc(-c2ccnc3c(Cl)c(C)nn23)cc1
  i, nt, -5, 51*, 9, 10, 2.1, 2, -16, -2.4
- COc1ccc(N2C(=O)C(F)(F)C2c2ccc(C)cc2)cc1OC (stereo not given)
  i, 3, -11, -1.4, -8, -8, -1.2, 4, -9, -1.2
- O=C(N/N=C/c1cccs1)C1COc2ccccc2O1 (stereo not given)
  nt, -1, 2, nt, nt, nt, nt, -6, -9, -2.3
- O=C(NN1CCOCC1)c1ccc(F)cc1
  i, -2, 2, -0.4, 7, 19, 1.3, -10, -3, 1.9
- COc1ccccc1C(=O)N(Cc1ccccc1)c1ccc(C)cc1
  i, -1, 38, -1.1, -16, -23, -2.5, 2, 24, 0.1
- Cc1ccc2[nH]c(=O)c(CN(CCCN3CCOCC3)C(=O)Nc3cccc(Cl)c3)cc2c1
  i, -7, -16, -1.6, -6, -1, 5.6, 5, 18, 3.1
- CCOc1ccc(CN(C)C(=O)CN2C(=O)NC3(CCCc4ccccc43)C2=O)cc1 (stereo not given)
  i, -4, nt, 4.8, -10, -5, 5.7, -3, nt, nt
- Cc1ccc(C)n1CCN1CCN(S(=O)(=O)c2ccc(F)cc2F)CC1
  i, -18, -1, -2.1, 17, 2, 2.6, -2, -7, 1.4

Taken from above.
Cc1ccc2[nH]c(=O)c(CN(CCCN3CCOCC3)C(=O)Nc3cccc(Cl)c3)cc2c1 in Calb FLC: -16
O=C(NN1CCOCC1)c1ccc(F)cc1 in Ecoli rRNA inh OD600: 19
COc1ccc(C(C)=O)cc1CC(=O)Nc1cccc(S(=O)(=O)N2CCOCC2)c1 in Ecoli rRNA inh: 1

Taken from above for reference:
Below each compound: FGF22 binding, ALR H2O2 inh, Calb FLC, MLL AF4-AF9 inh, Ecoli rRNA inh, Ecoli rRNA inh OD600, Ecoli rRNA inh RFP, Beta apoptosis, T cruzi repl, RanGTP-Imp inh
- COc1ccccc1CN1CC(C(=O)NCC2CCCO2)CC1=O (stereo not given)
  nt, 0, 3, nt, nt, nt, nt, -2, -21, -3.1
- Cc1ccc(OCCSc2ncnc3nc[nH]c23)cc1
  nt, 1, 1, nt, nt, nt, nt, 3, -12, 2.6

The list goes on:
Below each compound: FGF22 binding, ALR H2O2 inh, Calb FLC, MLL AF4-AF9 inh, Ecoli rRNA inh, Ecoli rRNA inh OD600, Ecoli rRNA inh RFP, Beta apoptosis, T cruzi repl, RanGTP-Imp inh
- Cn1cccc1Cc1nnc(SCC(=O)NCC2CCCO2)n1CCc1ccccc1 (stereo not given)
  nt, 4, 1, nt, nt, nt, nt, -1, 1, -0.8
- COc1ccc(NS(=O)(=O)c2cc(C)ccc2C)cc1
  nt, 3, -12, nt, nt, nt, nt, 1, -11, 6.2
- COc1ccccc1NC(=O)c1ccc(Cl)c(S(=O)(=O)NCc2ccco2)c1
  i, 1, nt, -0.6, -2, -7, -2.0, -1, nt, nt
- CCC(C)(C(=O)NC1CCCC1)N(C(=O)CC1NC(=O)NC1=O)c1c(C)n(C)n(-c2ccccc2)c1=O (stereo not given)
  i, nt, -6, -1.3, 7, 10, 1.0, 0, -16, -2.3
- O=C(c1ccc(F)cc1F)N1CCC(N2CCC(C(=O)N3CCOCC3)CC2)CC1
  i, -4, -5, -1.5, 2, 1, -1.0, -9, 6, 0.8
- O=C(NCc1ccccc1)N1CCC(CO)(Cc2cccc(F)c2)CC1
  i, 1, 5, -7.7, -14, -7, 2.0, -3, -6, 0.9
- COc1cc(/C=N/NC(=O)c2ccc(F)cc2)ccc1OC(=O)c1ccco1
  i, 44, -2, -5.9, -5, 16, 5.0, 3, 0, -0.1
- CCOc1ccc(N2CC(C(=O)NCC(=O)Nc3ccc(F)c(F)c3F)CC2=O)cc1 (stereo not given)
  i, 3, nt, -6.4, 7, 9, -0.7, -1, nt, nt
- CCn1cc(C(=O)NCC2CCCO2)c(=O)c2cc(S(=O)(=O)N(C)C)ccc21 (stereo not given)
  i, 24, 3, -3.5, 0, 5, -0.2, -1, 6, -0.1
- N#Cc1ccc(C(=O)OCC(=O)Nc2cccc(S(=O)(=O)N3CCCCC3)c2)cc1
  i, 0, nt, 1.0, -3, 1, 1.3, -2, nt, nt
- COCc1cc(C)nc(OCC(=O)N/N=C/c2ccc(O)cc2)c1C#N
  nt, 99*, -26, nt, nt, nt, nt, 1, 6, 0.6
- COc1ccc(C(=O)N2CCC(n3nccc3NC(=O)C3CC3)CC2)cc1F
  i, 17, 8, -1.9, 3, 15, -2.9, -3, -14, 5.2
- Cc1c(Cl)c([N+](=O)[O-])nn1CCCC(=O)Nc1cccc(Cl)c1Cl
  nt, -26, -1, nt, nt, nt, nt, -1, 5, 0.0
- CCOc1ccc(OCCCCn2ccnc2)cc1
  nt, 13, 0, 0.8, 2, -4, -3.9, -4, 7, 4.9
- COc1ccc(C(=O)CSc2nnc(-c3ccc(C)cc3)o2)cc1
  nt, -13, 3, nt, nt, nt, nt, 5, -13, -6.7
- Cc1cc(C(=O)CSc2nncs2)c(C)n1-c1c(C)n(C)n(-c2ccccc2)c1=O
  nt, -1, -1, nt, nt, nt, nt, -5, -1, -0.1
- N#CCCN(Cc1ccccc1)C(=O)c1nccnc1C(=O)O
  i, nt, -4, 0.2, 9, 8, -1.7, nt, -16, 1.0
- Cc1cccc(Cc2ccc(Cl)nn2)c1
  i, 6, 28, -1.1, 2, 2, -2.9, -7, 14, 5.7
- COc1ccc(CCNC(=O)Cn2ccc3cc(S(=O)(=O)N4CCCC4)ccc32)cc1OC
  i, -11, 11, 4.8, 0, -5, 2.9, -6, 5, -0.4
- C=CCNc1nc(-c2ccc(O)c(C(N)=O)c2)cs1
  nt, 57, 11, nt, nt, nt, nt, -11, -11, 1.8
- CSc1cnc2c(=O)n(C)c(=O)[nH]c2n1
  i, 1, ?, 0.7, 6, 16, -0.1, -2, -3, -4.8
- Cn1cccc1/C=N/n1c(-c2ccco2)n[nH]c1=S
  nt, 26, 5, nt, nt, nt, nt, -6, 2, ?
- Cc1cccc(C)c1NC(=O)CNC(=O)c1ccccc1
  i, -8, 0, 0.9, 1, 6, -1.2, 3, -1, 4.5
- CCc1nc2ccccc2c(C(=O)OCCN2C(=O)c3ccccc3C2=O)c1C
  nt, 0, -10, nt, nt, nt, nt, -2, 15, 5.7
- O=C(c1cccnc1)N1CCN(Cc2cccc(F)c2)CC1
  nt, 1, -1, nt, nt, nt, nt, -10, -7, 0.1
- Cc1ccc(SCC(=O)Nc2ccc(N3CCOCC3)cc2)cc1C
  i, 20, nt, 1.7, 4, -4, -6.9, 9, nt, nt
- COc1ccc(C2CC(c3ccc(OC)cc3)n3nc(NC(=O)c4cccs4)nc3N2)cc1 (stereo not given)
  nt, -3, -17, nt, nt, nt, nt, -4, 37, ?
- COc1cc(C)c(Cl)cc1S(=O)(=O)n1cnc2ccccc21
  i, -3, -14, 2.1, 6, -3, -1.9, -8, 21, ?
- Brc1ccc(-c2noc(-c3ccccc3)n2)o1
  i, -8, -12, 6.3, 13, 18, 0.3, -4, -6, -0.7
- COc1cccc(CNC(=O)C2=C(C)C(=O)OC23CCC(C)CC3)c1 (stereo not given)
  nt, 37, 3, nt, nt, nt, nt, nt, -10, 0.1
- c1cnc(Nc2nc(-c3ccc4ccccc4c3)cs2)nc1
  nt, -2, -6, nt, nt, nt, nt, nt, -6, -2.0
- O=C(CSc1nc2ccccc2s1)N1CCCCC1
  i, 99*, -8, 12, -1, -2, 2.1, 2, 6, 2.8
- COc1ccccc1NC(=O)CN(C)S(=O)(=O)c1ccc(F)cc1
  nt, 1, 24, nt, nt, nt, nt, 3, 7, 5.7
- CCn1c(=O)c2sccc2n(Cc2cc(C(=O)OC)ccc2OC)c1=O
  i, 8, 2, 2.3, 19, 12, 1.9, 0, 13, -0.1
- CC1CCN(C(=O)CCc2nnc(-c3ccccc3)o2)CC1
  i, 2, -6, 0.1, 2, 1, 1.0, 2, -17, -2.3
- O=C(/C=C/c1cc([N+](=O)[O-])ccc1OC(F)F)Nc1cccc2ccccc12
  i, nt, 1, 1.9, 5, 1, -1.8, -3, 1, ?
- O=C(CSc1nnc(-c2ccc(Cl)cc2)o1)NNC(=O)c1ccncc1
  i, 7, nt, -15, 3, 9, -1.0, 1, 3, -0.1

This is a subset; the hit share may differ from the screen's.
